Marburg entry inh: Marburg virus entry inhibition; Marburg virus pseudotyped entry inhibition, cell reporter; control for the full effect not named in the record; about a third of the inactives were read at about 46 µM; Potency, µM (series often up to 37.8 µM), for inactives: at the top dose activity change, negative = inhibition, actives largely listed as inhibitors; 300,000 compounds, 1.8% hits; active = well fitted inhibition curve with a large enough effect; inconclusive = small, poorly fitted or top-dose-only effect, or effect the other way; inactive = flat fitted curve, though single readings scatter; tested in HEK293 cells; about a fifth of its hits are not listed in these tables; also: % is scaled to controls: 0 for no effect and ±100 for the full control effect; luciferase read-out
SARS PLpro yeast: inhibitors of SARS-CoV papain-like protease in yeast; S. cerevisiae expressing SARS-CoV PLpro, growth rescue; control for the full effect not named in the record; 330,000 compounds, 0.19% hits; Potency, µM (titrated, usually from 32.9 µM), for the others: at the top dose activity, positive = growth rescue; also: 0% is about no effect; nearly all actives have a fitted effect of over 55% in size; growth read by luminescence after 48 h
StopGo reporter: FMDV 2A StopGo reporter, luciferase signal. human cells with a luciferase reporter of 2A StopGo recoding; control for the full effect not named in the record. Potency, µM (series often up to 57.9 µM), for inactives: at the top dose signal change, negative = less light. 410,000 compounds, 1.2% hits. AID 1159524; active = well fitted falling curve with a large enough effect; inconclusive = small, poorly fitted or top-dose-only effect; inactive = no such curve, though single readings can be large or run the other way; tested in HEK293T cells; also: % is scaled to controls: 0 for no effect and ±100 for the full control effect; nearly all actives have a fitted effect of over 45% in size; luciferase light after 4 h
Cruzain inh noDet: inhibitors of Trypanosoma cruzi cruzain without detergent | P25779 | purified cruzain, Z-FR-AMC fluorescence, no detergent | Potency, µM, for the others: max response, negative = inhibition, hits mostly inhibitors | 200,000 compounds, 2.3% hits | AID 1476; active = well fitted curve in the direction sought with a large enough effect; inconclusive = small, poorly fitted or top-dose-only effect, or another doubt; inactive = no such curve, though single readings can be large; an effect the other way counts as inactive or inconclusive;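 also: plate controls were enzyme without inhibitor for no effect and buffer without enzyme for full effect; nearly all actives have a fitted effect of over 40% in size; top concentration of the series not given in the record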
Target sequence (P25779 123-467 limits assumed): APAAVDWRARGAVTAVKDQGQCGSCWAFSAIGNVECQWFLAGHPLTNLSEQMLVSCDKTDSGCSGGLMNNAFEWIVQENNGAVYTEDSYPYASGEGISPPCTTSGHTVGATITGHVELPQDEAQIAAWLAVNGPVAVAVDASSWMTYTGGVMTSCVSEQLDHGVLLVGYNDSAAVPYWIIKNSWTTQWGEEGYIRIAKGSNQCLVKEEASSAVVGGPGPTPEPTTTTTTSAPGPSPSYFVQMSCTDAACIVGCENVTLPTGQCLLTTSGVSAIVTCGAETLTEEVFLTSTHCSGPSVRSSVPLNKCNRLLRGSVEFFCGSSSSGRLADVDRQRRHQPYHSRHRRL
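Purified cruzain at 1.5 nM, pre-incubated 15 min with compound at room temperature in 100 mM sodium acetate pH 5.5, 5 mM DTT, 0.00005% Triton X-100. Reaction started with 2 uM Z-FR-AMC; AMC fluorescence increase over 60 s gives rate.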
RE007 growth inh: less growth of the S. pombe RE007 Vpr strain; Potency, µM (doses to about 92.2 µM), without a hit: at the highest dose activity change, negative = less growth; 360,000 compounds, 0.21% hits; S. pombe RE007 Vpr strain, BacTiter-Glo ATP luminescence, 24 h; control for the full effect not named in the record; active = well fitted falling curve with a large enough effect; inconclusive = small, poorly fitted or top-dose-only effect; inactive = no such curve, though single readings can be large or run the other way;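 also: % is scaled to controls: 0 for no effect and ±100 for the full control effect; nearly all actives have a fitted effect of over 50% in size; the assay follows cell death caused by Vpr and the record does not say whether a fall means rescue or toxicity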
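Fission yeast RE007 carrying one integrated HIV-1 vpr copy, seeded at OD 0.01 in PMG+AL medium with 23 nL pinned compound. Grown 24 h at 30 degrees; viability read by BacTiter-Glo luminescence after 5 min.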
Cruzain Triton: blocks cruzain activity in presence of Triton detergent; Potency, µM, for the others: max response, negative = inhibition, hits mostly inhibitors; purified cruzain, Z-FR-AMC fluorescence, 0.01% Triton; 200,000 compounds, 0.43% hits; active = well fitted curve in the direction sought with a large enough effect; inconclusive = small, poorly fitted or top-dose-only effect, or another doubt; inactive = no such curve, though single readings can be large; an effect the other way counts as inactive or inconclusive;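 also: plate controls were neutral wells for no effect and buffer without enzyme for full effect; nearly all actives have a fitted effect of over 40% in size; top concentration of the series not given in the record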
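Read-out: AMC fluorescence (360 nm excitation, 450 nm emission), four reads over 2 min, first-to-third difference used. Conditions: cruzain 1.5 nM, Z-FR-AMC 2 uM, pH 5.5 acetate, 5 mM DTT, 0.01% Triton X-100.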
NS1 inh: influenza NS1 inhibition; S. cerevisiae slowed by influenza A NS1, growth recovery by OD600; Potency, µM (titrated, usually from 46.1 µM), without a hit: top-dose activity, positive = more growth; 270,000 compounds, 0.4% hits; AID 2326; also: actives are rising curves; nearly all actives have a fitted effect of over 50% in size
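OD600 was taken as the measure of yeast growth restored by compound in an NS1-expressing S. cerevisiae strain. Cells had been washed out of glucose medium and diluted 1:100 into galactose -URA medium, pH 6.0.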
Lassa entry inh: blocks Lassa virus binding to or entry into cells. AID 540256. 300,000 compounds, 1.2% hits. Potency, µM (series often up to 37.9 µM), for the others: top-dose activity change, negative = inhibition, hits mostly inhibitors. Lassa virus pseudotype entry inhibition, cell reporter; control for the full effect not named in the record; active means well fitted inhibition curve with a large enough effect; inconclusive means small, poorly fitted or top-dose-only effect, or effect the other way; inactive means flat fitted curve, though single readings scatter; tested in HEK293 cells; also: % is scaled to controls: 0 for no effect and ±100 for the full control effect; nearly all actives have a fitted effect of over 50% in size; luciferase read-out
* = called active by the depositor; & = joins results of further samples; [ ] = dose if it differs, or a comment. Unless noted, calls follow the shape of the dose curve; as a rule, active means well fitted rising curve with a large enough effect; inconclusive means small, poorly fitted or top-dose-only effect; inactive means no such curve, though single readings can be large or run the other way. Potency is read from the fitted curve at half-maximal effect.

For O=C(CN1C(=O)NC2(CCCCC2)C1=O)Nc1cc(C(F)(F)F)ccc1N1CCOCC1 the results were Marburg entry inh -29%, SARS PLpro yeast 8%, StopGo reporter -2%, RE007 growth inh 0% and Lassa entry inh 11%.
For CC(=O)Nc1cnn(Cc2ccc(Br)cc2)c1 the results were Marburg entry inh 12%, SARS PLpro yeast 2%, StopGo reporter -17%, Cruzain inh noDet -3%, RE007 growth inh -2%, Cruzain Triton 5.1%, NS1 inh -3% and Lassa entry inh 2%.
For COc1ccc(/C=C/C(=O)O)cc1COc1cccc(C)c1 the results were Marburg entry inh 0%, SARS PLpro yeast 5%, StopGo reporter -6%, Cruzain inh noDet -15%, RE007 growth inh -8%, Cruzain Triton -2.3%, NS1 inh 3% and Lassa entry inh 6%.
Screening CCOC(=O)N1CCC(N2C(=O)c3ccc(C(=O)NCc4ccco4)cc3C2=O)CC1 returned Marburg entry inh 12%&12%, SARS PLpro yeast 1%, StopGo reporter -12%, Cruzain inh noDet 1%, RE007 growth inh -1%, Cruzain Triton -2.5%, NS1 inh -26% and Lassa entry inh 2%.
`Cc1ccccc1COCCN1CCN(S(=O)(=O)c2ccccc2)CCC1=O` gave SARS PLpro yeast 0%, StopGo reporter -26%, RE007 growth inh -2% and NS1 inh 1%.
`O=S(Cc1ccccc1)c1ccccc1` (configuration not stated) gave Marburg entry inh 25%, StopGo reporter 5%, RE007 growth inh 4% and Lassa entry inh 5%[46.1 µM].
Cc1ccc(-c2csc(SCC(=O)c3c(N)n(C4CC4)c(=O)[nH]c3=O)n2)cc1 was read as Marburg entry inh inconclusive, SARS PLpro yeast -2%, StopGo reporter -7%, RE007 growth inh -12% and Lassa entry inh inconclusive.
For COc1cc(OC)cc(C(=O)NC2CC3CCC(C2)N3Cc2ccco2)c1 (configuration not stated) the results were Marburg entry inh 1%, SARS PLpro yeast -1%, StopGo reporter 0%, Cruzain inh noDet 4%, RE007 growth inh -2%, Cruzain Triton 5.1%, NS1 inh -1% and Lassa entry inh 11%.
`Cc1ccc(SCC2=NNC(=O)C2)cc1` gave Marburg entry inh 13%, SARS PLpro yeast 0%, StopGo reporter -5%, Cruzain inh noDet -10%, RE007 growth inh 8%, Cruzain Triton -0.8%, NS1 inh inconclusive and Lassa entry inh 10%.
For COc1ccc(NC(=O)/C(=C\c2ccncc2)NC(=O)c2ccccc2)cc1 the results were Marburg entry inh -5%[14.2 µM], SARS PLpro yeast 2%, StopGo reporter 4%, RE007 growth inh -3% and Lassa entry inh 0%.
`CC1=C(C(=O)OCCC(C)C)C(c2ccc3c(c2)OCO3)NC(=O)N1` (configuration not stated) gave SARS PLpro yeast 2%, StopGo reporter inconclusive, RE007 growth inh -10% and NS1 inh 28%.
`CN(C)c1ccc(N2C(=NC(=O)CC3CCCCC3)SC3CS(=O)(=O)CC32)cc1` (configuration not stated) gave SARS PLpro yeast 8%, StopGo reporter 2%, RE007 growth inh 1% and NS1 inh 12%.
CC(NCc1ccccc1O)c1ccccc1 (configuration not stated) was read as SARS PLpro yeast 2%, StopGo reporter 11%, RE007 growth inh 6% and NS1 inh 3%.
Screening CCOC(=O)c1cc(C#N)c(Nc2ccccc2OC)nc1C(F)(F)F returned Marburg entry inh 5%&5%, SARS PLpro yeast 0%, StopGo reporter 1%, RE007 growth inh -18%, NS1 inh 0% and Lassa entry inh -5%.
CCCC[C@@]1(C2CCCC2)Cc2cc(OCC(=O)O)c(Cl)c(Cl)c2C1=O was read as Marburg entry inh inconclusive, StopGo reporter -27%, Cruzain inh noDet inconclusive, RE007 growth inh -5%, Cruzain Triton -13%, NS1 inh -6% and Lassa entry inh 4%.
For Cc1ccc(S(=O)(=O)c2c(O)cc(C)c(NS(=O)(=O)c3ccc(Br)cc3)c2C)cc1 the results were Marburg entry inh inconclusive, StopGo reporter 31%[activator], Cruzain inh noDet inconclusive, Cruzain Triton -1.0% and Lassa entry inh 0%[46.1 µM].
For CCCN(CCC)CCNc1c(N2CCN(C(=O)OCC)CC2)c(=O)c1=O the results were Marburg entry inh 25%, SARS PLpro yeast -5%, StopGo reporter -1%, Cruzain inh noDet -8%, RE007 growth inh -1%, Cruzain Triton -0.5%, NS1 inh -6% and Lassa entry inh 1%.
For O=C(O)CCc1ccc(-c2ccccc2)n1NC(=O)c1cccs1 the results were Marburg entry inh inconclusive, SARS PLpro yeast 2%, StopGo reporter -16%, RE007 growth inh 31%, NS1 inh 3% and Lassa entry inh 11%[46.1 µM].
For COCCCNC(=O)CC(NS(=O)(=O)c1ccc(OC)cc1)c1ccc(OC)cc1 (configuration not stated) the results were Marburg entry inh 11%&-3%, SARS PLpro yeast 0%, StopGo reporter -1%, Cruzain inh noDet -3%, RE007 growth inh 5%, Cruzain Triton -3.9%, NS1 inh -27% and Lassa entry inh -1%.
Screening CN(C)C(CNC(=O)C1CC(=O)N(Cc2ccccc2)C1)c1ccccc1 (configuration not stated) returned Marburg entry inh 8%, SARS PLpro yeast -1%, StopGo reporter 3%, RE007 growth inh -21% and Lassa entry inh 4%[46.1 µM].
`O=C(NOC(=O)c1ccccc1Cl)c1cccs1` gave Marburg entry inh 1%, SARS PLpro yeast -3%, StopGo reporter -3%, Cruzain inh noDet -19%, RE007 growth inh -10%[3.69 µM], Cruzain Triton -11%, NS1 inh 1% and Lassa entry inh -17%.
Screening O=C(c1ccc(F)cc1)C1CCN(C(=O)Nc2ccc(F)cc2F)CC1 returned Marburg entry inh 3%[46.1 µM], SARS PLpro yeast -5%, StopGo reporter -8%, RE007 growth inh -7%, NS1 inh -3% and Lassa entry inh inconclusive.
Screening COc1ccc(NC(=O)CC(C(=O)O)N2CCCCC2)cc1 (configuration not stated) returned Marburg entry inh 6%, SARS PLpro yeast 1%, StopGo reporter -1%, Cruzain inh noDet 7%, RE007 growth inh -6%, Cruzain Triton 1.8% and NS1 inh 5%.
COc1ccc(NC(=O)CN(c2cccc(C)c2C)S(=O)(=O)c2ccccc2)cc1OC was read as Marburg entry inh -45%[46.1 µM], StopGo reporter -14%, Cruzain inh noDet inconclusive, Cruzain Triton -8.6% and Lassa entry inh inconclusive.
Screening CCn1c(SCc2nc3ccccc3s2)nc2cc(S(=O)(=O)N3CCOCC3)ccc21 returned Marburg entry inh -5%[46.1 µM], StopGo reporter 40%[activator], RE007 growth inh 6%, NS1 inh 14% and Lassa entry inh -24%.
Screening CCN1CCN(c2ccc(NC(=O)c3cc(OC)c(OC)c(OC)c3)cc2)CC1 returned SARS PLpro yeast -3%, StopGo reporter 1%, RE007 growth inh 4% and NS1 inh -3%.
For COc1ccc(OC)c(NC(=O)CN2c3cccc4cccc(c34)S2(=O)=O)c1 the results were Marburg entry inh inconclusive, SARS PLpro yeast 1%, StopGo reporter -19%, RE007 growth inh -10% and Lassa entry inh -29%.
Cc1ccc(NS(=O)(=O)c2ccc(N3C(=O)CCC3=O)cc2)cc1 was read as Marburg entry inh 1%, SARS PLpro yeast 5%, StopGo reporter 9%, Cruzain inh noDet 4%, RE007 growth inh 9%, Cruzain Triton 4.4%, NS1 inh 1% and Lassa entry inh 1%.
For O=C(NCc1ccco1)c1ccc(OCC2CCCO2)cc1 (configuration not stated) the results were Marburg entry inh 25%, SARS PLpro yeast 3%, StopGo reporter 26%, Cruzain inh noDet 4%, RE007 growth inh -11%[3.69 µM], Cruzain Triton -1.7%, NS1 inh -2% and Lassa entry inh 11%.
COc1ccc(-c2cc(C(=O)Nc3cccnc3Cl)no2)cc1 was read as Marburg entry inh 2%[46.1 µM], SARS PLpro yeast 13%, StopGo reporter 31%[activator], RE007 growth inh -1%, NS1 inh 8% and Lassa entry inh -1%[46.1 µM].
For CCOC(=O)c1ccc(NC(=O)CSc2nnc(CC)o2)cc1 the results were SARS PLpro yeast 0%, StopGo reporter 6%, RE007 growth inh -1% and NS1 inh 4%.
Screening Cc1cc(C)n(CC(O)COc2ccc(C(C)(C)C)cc2)n1 (configuration not stated) returned SARS PLpro yeast -3%, StopGo reporter -2%, RE007 growth inh 25% and NS1 inh -19%.
For COc1cc(/C=C(\C#N)c2nc3ccccc3n2C)cc(OC)c1OC the results were StopGo reporter -14%, Cruzain inh noDet -4%, Cruzain Triton -1.5% and Lassa entry inh -26%[46.1 µM].
For Cc1nn(-c2ccc(Cl)cc2)c2[nH]c(CCl)cc(=O)c12 the results were Marburg entry inh -12%[46.1 µM], SARS PLpro yeast -49%, StopGo reporter -12%, RE007 growth inh -28%, NS1 inh -93% and Lassa entry inh 13%.
`Cc1ccc(S(=O)(=O)N2C(=O)CCC2C(=O)O/N=C(\N)c2ccc([N+](=O)[O-])cc2)cc1` (configuration not stated) gave SARS PLpro yeast -3%, StopGo reporter -28%, RE007 growth inh -1% and NS1 inh 2%.
`O=C(Nc1ccc2oc(-c3cccnc3)nc2c1)c1cccnc1` gave Marburg entry inh 0%, SARS PLpro yeast -2%, StopGo reporter 13%, Cruzain inh noDet -19%, RE007 growth inh 4%, Cruzain Triton -0.5%, NS1 inh -1% and Lassa entry inh 2%.
For N/C(=N\OC(=O)CCCc1ccccc1)c1ccccn1 the results were Marburg entry inh 2%, SARS PLpro yeast -21%, StopGo reporter 5%, Cruzain inh noDet -1%, RE007 growth inh 1%, Cruzain Triton -2.9%, NS1 inh -16% and Lassa entry inh inconclusive.
Screening Cn1c(N)c(S(=O)(=O)N2CCN(c3cccc(Cl)c3)CC2)c(=O)n(C)c1=O returned Marburg entry inh 18%[46.1 µM], SARS PLpro yeast -6%, StopGo reporter -21%, RE007 growth inh -22%, NS1 inh -1% and Lassa entry inh 3%[46.1 µM].
`COc1ccc(/C=C/C(=O)OCC(=O)NCc2cccs2)cc1OC` gave Marburg entry inh -13%, SARS PLpro yeast 3%, StopGo reporter -15%, Cruzain inh noDet 5%, RE007 growth inh -17%, Cruzain Triton -1.3%, NS1 inh -5% and Lassa entry inh inconclusive.
